Source: PubChem BioAssay (National Center for Advancing Translational Sciences (NCATS))
nsP2pro inh = Primary qHTS for inhibitors of NSP2Pro chikungunya virus (CHIKV); Polyprotein P1234 (Chikungunya virus (strain S27-African prototype)), Q8JUX6; FRET peptide cleavage, nsP2pro, fluorescence 1 h; Potency, µM (top dose mostly 24.9 µM), for the others: at the top dose activity change, negative = inhibition, actives largely listed as inhibitors; 1.1% of 31,000 active; active means well fitted inhibition curve with a large enough effect; inconclusive means small, poorly fitted or top-dose-only effect; inactive means no such curve, though single readings can be large or run the other way; also: nearly all actives have a fitted effect of over 60% in size; a reference inhibitor and vehicle were the controls
Target sequence (Q8JUX6 whole entry, looked up): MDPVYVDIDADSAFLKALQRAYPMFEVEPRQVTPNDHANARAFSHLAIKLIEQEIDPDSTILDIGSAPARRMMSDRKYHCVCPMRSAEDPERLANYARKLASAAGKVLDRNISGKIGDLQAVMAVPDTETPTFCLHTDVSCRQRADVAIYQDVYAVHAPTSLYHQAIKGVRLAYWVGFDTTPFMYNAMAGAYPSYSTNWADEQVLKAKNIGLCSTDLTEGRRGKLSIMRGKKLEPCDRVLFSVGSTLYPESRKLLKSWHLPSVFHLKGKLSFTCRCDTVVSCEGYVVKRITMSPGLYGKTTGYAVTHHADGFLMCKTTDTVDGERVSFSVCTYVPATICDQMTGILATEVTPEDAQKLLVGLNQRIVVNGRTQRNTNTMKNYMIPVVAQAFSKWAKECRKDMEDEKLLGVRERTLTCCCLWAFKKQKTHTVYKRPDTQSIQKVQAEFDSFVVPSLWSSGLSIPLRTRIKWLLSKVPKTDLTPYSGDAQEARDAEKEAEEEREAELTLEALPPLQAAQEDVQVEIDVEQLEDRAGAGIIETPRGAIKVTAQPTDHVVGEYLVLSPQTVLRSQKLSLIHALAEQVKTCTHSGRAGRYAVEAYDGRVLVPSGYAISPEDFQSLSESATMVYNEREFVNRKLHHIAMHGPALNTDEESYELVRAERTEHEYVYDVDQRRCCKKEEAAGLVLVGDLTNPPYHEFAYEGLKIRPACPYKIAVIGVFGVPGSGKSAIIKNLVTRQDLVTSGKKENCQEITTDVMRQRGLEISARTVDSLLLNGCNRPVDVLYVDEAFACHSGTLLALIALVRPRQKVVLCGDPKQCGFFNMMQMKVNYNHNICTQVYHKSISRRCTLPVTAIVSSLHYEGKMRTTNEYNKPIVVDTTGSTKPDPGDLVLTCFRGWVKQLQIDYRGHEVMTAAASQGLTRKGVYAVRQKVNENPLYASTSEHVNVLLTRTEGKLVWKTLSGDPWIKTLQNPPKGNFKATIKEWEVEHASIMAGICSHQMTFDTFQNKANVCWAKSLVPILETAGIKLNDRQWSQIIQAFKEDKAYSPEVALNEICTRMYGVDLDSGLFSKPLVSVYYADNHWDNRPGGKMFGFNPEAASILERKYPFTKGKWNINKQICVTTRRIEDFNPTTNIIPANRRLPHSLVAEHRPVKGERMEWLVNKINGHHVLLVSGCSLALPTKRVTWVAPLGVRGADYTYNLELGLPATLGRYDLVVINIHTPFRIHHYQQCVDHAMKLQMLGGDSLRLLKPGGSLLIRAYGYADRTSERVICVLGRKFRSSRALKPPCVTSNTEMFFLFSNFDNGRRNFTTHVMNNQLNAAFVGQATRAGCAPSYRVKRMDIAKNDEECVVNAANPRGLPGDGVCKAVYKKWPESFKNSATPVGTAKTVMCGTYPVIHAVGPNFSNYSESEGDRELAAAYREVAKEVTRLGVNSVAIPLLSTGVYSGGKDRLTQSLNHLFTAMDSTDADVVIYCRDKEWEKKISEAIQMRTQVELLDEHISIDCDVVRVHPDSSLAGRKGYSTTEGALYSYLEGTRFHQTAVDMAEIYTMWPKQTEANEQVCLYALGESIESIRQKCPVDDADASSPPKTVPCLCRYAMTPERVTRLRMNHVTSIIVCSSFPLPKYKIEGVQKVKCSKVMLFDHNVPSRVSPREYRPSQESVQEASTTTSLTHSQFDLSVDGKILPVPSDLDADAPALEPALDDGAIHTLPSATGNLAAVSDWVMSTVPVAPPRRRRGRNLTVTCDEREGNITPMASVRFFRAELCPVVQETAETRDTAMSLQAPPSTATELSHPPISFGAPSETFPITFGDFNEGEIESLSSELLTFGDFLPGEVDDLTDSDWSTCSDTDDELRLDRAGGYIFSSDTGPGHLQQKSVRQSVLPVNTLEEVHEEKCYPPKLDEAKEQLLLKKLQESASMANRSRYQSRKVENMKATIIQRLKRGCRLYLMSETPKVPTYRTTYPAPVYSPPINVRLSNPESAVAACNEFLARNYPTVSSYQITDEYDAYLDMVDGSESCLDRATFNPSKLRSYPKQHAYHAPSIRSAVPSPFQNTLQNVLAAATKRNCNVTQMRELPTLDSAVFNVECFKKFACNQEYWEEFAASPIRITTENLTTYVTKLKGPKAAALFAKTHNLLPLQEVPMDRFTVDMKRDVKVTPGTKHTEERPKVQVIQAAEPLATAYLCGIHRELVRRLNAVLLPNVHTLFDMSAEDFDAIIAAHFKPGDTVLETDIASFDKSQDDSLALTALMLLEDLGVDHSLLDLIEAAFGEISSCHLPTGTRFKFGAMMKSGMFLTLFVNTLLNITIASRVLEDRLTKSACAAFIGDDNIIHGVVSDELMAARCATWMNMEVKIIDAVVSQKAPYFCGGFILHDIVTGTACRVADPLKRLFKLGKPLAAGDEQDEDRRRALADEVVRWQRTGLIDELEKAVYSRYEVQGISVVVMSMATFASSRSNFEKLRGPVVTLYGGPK
* hit, by the source's call; i = inactive; ? = inconclusive; & = joins results of further samples; [ ] = another dose, or the depositor's remark. % is scaled to controls: 0 for no effect and ±100 for the full control effect; potency is read from the fitted curve at half-maximal effect. Some of the compounds tested; count on the stated rates, not on these rows.

SMILES | nsP2pro inh
CC(C)CC(NC(=O)OCc1ccccc1)C(=O)NC(CC(C)C)C(=O)NC(CCC(=O)O)C(=O)Nc1ccc2ccccc2c1 (stereo not drawn) | 2%
C=C1CC[C@@H]2[C@](C)(CO)[C@H](O[C@@H]3O[C@H](CO)[C@@H](O)[C@H](O)[C@H]3O)CC[C@@]2(C)[C@@H]1C/C=C1/C(=O)OC[C@H]1O | 20%[10 µM]
COc1cc(NC(=O)CCS(=O)(=O)c2ccc(Br)cc2)cc(OC)c1 | -10%
CCc1cccc(Nc2nn3c(=O)c4ccccc4nc3s2)c1 | -12%
Cc1cccc(-n2cnc3cc(C(=O)NC(C)(C)C)ccc32)c1 | 0%
CC[C@H](C)/C=C(C)/C=C/C1=CC2=CC(=O)[C@]3(C)OC(=O)[C@@H](C(C)=O)[C@@H]3C2=CO1 | ?
CC1CC(O)/C=C/C(O)C(O)CC(=O)Cc2c(Cl)c(O)cc(O)c2C(=O)O1 (stereo not drawn) | 43%
Cc1cnc(C2CCOCC2)n1CCN | -1%
O=C1C(c2[nH]c3ccc(S(=O)(=O)O)cc3c2O)=Nc2ccc(S(=O)(=O)O)cc21 | -26%
O=C(C1CCCC1)N1CCCC(c2noc(COc3ccccc3)n2)C1 (stereo not drawn) | -5%
C/C=C(/C)C(=O)OC1CC(C)(C)CC2C3=CCC4C5(C)CCC(OC6OC(C)C(OC7OC(C(=O)O)C(O)C(OC8OC(CO)C(O)C(O)C8OC8OC(CO)C(O)C(O)C8O)C7O)C(O)C6O)C(C)(C)C5CCC4(C)C3(C)C(OC(=O)/C=C/C=C/C=C/CCC)C(OC(C)=O)C12CO (stereo not drawn) | 199%[activator][5.1 µM]
CCCn1c(C)nc2c(NCCN(CC)CC)nc(C)nc21 | -9%
COc1cccc(CN2C(=O)c3ccccc3Sc3ccc(C(=O)N(C)Cc4ccccc4)cc32)c1 | -6%
CCCCCCCCCCCCCC(=O)O | -32%
FC(F)(F)c1cc(-c2cccc(Br)c2)nc2ncnn12 | -21%
CN1CCC(N(Cc2cccs2)c2ccccc2)CC1 | 30%
Cc1ccccc1N1CCN(C(=O)Cn2nc3n(c2=O)CCC(N)CC3)CC1 (stereo not drawn) | 2%
Cc1nnc(-c2cnn(C)c2N)n1Cc1cncn1C | i
COc1cc2ncnc(Sc3nnc(C)s3)c2cc1OC | 46%[activator]
CCOc1ccc(/C=C/C(=O)Nc2sc3c(c2C(=O)OC)C(C(=O)OC)CC3)cc1 (stereo not drawn) | 2.8µM*
CN1CCN(C(=O)[C@@H]2C[C@H](C(=O)O)CN(Cc3cccc(F)c3)C2)CC1 | 1%
O=C(NCc1ccc(F)cc1)c1ccc(N2CC3CC(C2)[C@H]2CCCC(=O)N2C3)nc1 (stereo partly drawn) | -9%
CCC(=O)c1ccc(O)cc1 | -8%
O=C(NC1CCCCC1)C1CN(C(=O)c2ccc(Br)o2)CC12CCOCC2 (stereo not drawn) | -14%
Nc1nonc1C(=O)NCCNCc1ccc(Cl)c(Cl)c1 | -28%

Part of the list above in order of SMILES length, low to high.
SMILES | nsP2pro inh
CCCCCCCCCCCCCC(=O)O | -32%
CN1CCC(N(Cc2cccs2)c2ccccc2)CC1 | 30%
Cc1nnc(-c2cnn(C)c2N)n1Cc1cncn1C | i
CCCn1c(C)nc2c(NCCN(CC)CC)nc(C)nc21 | -9%
FC(F)(F)c1cc(-c2cccc(Br)c2)nc2ncnn12 | -21%
O=C(C1CCCC1)N1CCCC(c2noc(COc3ccccc3)n2)C1 (stereo not drawn) | -5%
COc1cc(NC(=O)CCS(=O)(=O)c2ccc(Br)cc2)cc(OC)c1 | -10%
Cc1ccccc1N1CCN(C(=O)Cn2nc3n(c2=O)CCC(N)CC3)CC1 (stereo not drawn) | 2%
O=C(NCc1ccc(F)cc1)c1ccc(N2CC3CC(C2)[C@H]2CCCC(=O)N2C3)nc1 (stereo partly drawn) | -9%
COc1cccc(CN2C(=O)c3ccccc3Sc3ccc(C(=O)N(C)Cc4ccccc4)cc32)c1 | -6%
O=C1C(c2[nH]c3ccc(S(=O)(=O)O)cc3c2O)=Nc2ccc(S(=O)(=O)O)cc21 | -26%
CC(C)CC(NC(=O)OCc1ccccc1)C(=O)NC(CC(C)C)C(=O)NC(CCC(=O)O)C(=O)Nc1ccc2ccccc2c1 (stereo not drawn) | 2%
C/C=C(/C)C(=O)OC1CC(C)(C)CC2C3=CCC4C5(C)CCC(OC6OC(C)C(OC7OC(C(=O)O)C(O)C(OC8OC(CO)C(O)C(O)C8OC8OC(CO)C(O)C(O)C8O)C7O)C(O)C6O)C(C)(C)C5CCC4(C)C3(C)C(OC(=O)/C=C/C=C/C=C/CCC)C(OC(C)=O)C12CO (stereo not drawn) | 199%[activator][5.1 µM]

Continued:
SMILES | nsP2pro inh
CCN(CC)Cc1cnc2c(C(=O)NC3(C(N)=O)CCCC3)cnn2c1 | -1%
COc1ccc(NC(=O)CN2CCN(Cc3ccc(F)cc3)S2(=O)=O)cc1Cl | -14%
Cc1ccc(C(=O)Nc2ccc(N3CCOCC3)cc2)cc1 | -3%
COc1ccc(-c2noc(CC(=O)O)c2-c2ccc(OC)cc2)cc1 | -4%
O=C(NC1CCN(c2cc(-c3cccs3)[nH]n2)C1)c1cccnc1 (stereo not drawn) | -12%
CCCS(=O)(=O)N1CC(Oc2ccccc2-c2noc(C)n2)C1 | i
Cc1ccccc1C(OCCN(C)C)c1ccccc1 (stereo not drawn) | -4%
O=C(NCc1ccc(F)cc1)c1nnc(Cc2cccc(F)c2)o1 | -14%
COc1ccc(NC(=O)Nc2ccc(-c3nc4ccccc4[nH]3)cc2)cc1OC | 1%
CCCCCCCCCCC(O)C1C=CC2C(=O)N(c3ccccc3)C(=O)C2N1Nc1ccc([N+](=O)[O-])cc1 (stereo not drawn) | 75%[activator]
CC1CCCCCCCc2cc(O)cc(O)c2C(=O)O1 (stereo not drawn) | 134%[activator]
COc1cc(OC)cc(C(=O)N[C@@H]2COCC[C@@H]2Oc2cccc(F)c2)c1 | 0%
Cc1cc(C)cc(N2CCN(C(=S)Nc3cc(C)cc(C)n3)CC2)c1 | -2%
O=C(COc1ccccc1)N1C[C@@H]2C[C@H](C1)c1c(NS(=O)(=O)c3ccccc3)ccc(=O)n1C2 | ?
COc1ccc(CCN2CCC(CN(C)C(=O)C3CCCCO3)CC2)cc1 (stereo not drawn) | -13%
Cc1ccc(CN(Cc2cccn2-c2nnc(N3CCCC3=O)s2)C(=O)Nc2ccc(F)cc2)cc1 | -12%
C=C(C)[C@@H]1CC[C@]2(C)CC[C@]3(C)[C@H](CC[C@@H]4[C@@]5(C)CC[C@@H](O)C(C)(C)[C@@H]5CC[C@]43C)[C@@H]12 | ?
CCN(Cc1ccccc1)C(=O)Cn1ncc2c(=O)oc3ccc(C)cc3c21 | -17%
CCOC(=O)c1nn(-c2ccccc2)c(=O)c2c(N)scc12 | i
COc1cc(O)c2c(c1)/C=C/C[C@@H](O)[C@@H](O)C(=O)CCC[C@H](C)OC2=O | ?
O=C(Nc1ccc(-c2nc3ccccc3[nH]2)cc1)c1ccc2ncsc2c1 | 11µM*
CCOc1ccc(N(CC(=O)Nc2ccc(OC)cc2)S(=O)(=O)c2ccc(Cl)cc2)cc1 | -24%
COC(=O)C1=COC(O[C@@H]2O[C@H](CO)[C@@H](O)[C@H](O)[C@H]2O)[C@@H]2[C@@](C)(O)[C@@H](OC(=O)/C=C/c3ccccc3)C[C@]12O (stereo partly drawn) | ?
C=CCCC(CN1CCCOCC1)Oc1nccc(N(C)CC)n1 (stereo not drawn) | i
Cc1cc(F)c(Nc2ncnc3cc(OCc4ccccc4)ccc23)cc1O | 42%

Additional structures:
SMILES | nsP2pro inh
CC(C)NS(=O)(=O)c1ccc2c(c1)nc(-c1cc(C(C)(C)C)[nH]n1)n2C(C)C | i
O=C(NCc1ccco1)c1ccc2c(c1)N(Cc1ccc(Cl)cc1)C(=O)c1ccccc1S2(=O)=O | -34%
O=C(C1CCCN1[S+](=O)([O-])c1cccc(C(F)(F)F)c1)N1CCC(N2Cc3cccn3C2=O)CC1 (stereo not drawn) | -10%
Cc1cnc(-c2ccccc2C(C)C)nc1NCc1ccc(-n2ccnn2)cc1 | ?
CCNC(=O)C1CCC(C(=O)Nc2ccc([S+](=O)([O-])Nc3nccs3)cc2)CC1 (stereo not drawn) | -2%
CC(C)C1=CC2=CCC3[C@](C)(CCC[C@@]3(C)C(=O)O)C2CC1=O (stereo partly drawn) | ?
O=C(O)C1=CO[C@@H](O[C@@H]2O[C@H](CO)[C@@H](O)[C@H](O)[C@H]2O)[C@@H]2C(CO)=CC[C@H]12 | ?
N#C/C(=C\c1ccc(Cl)cc1)c1nc(-c2cc3c(ccc4ccccc43)oc2=O)cs1 | -16%
CC(=O)[C@H]1CC[C@H]2[C@@H]3CCC4=CC(=O)CC[C@]4(C)[C@H]3CC[C@]12C | -6%
CC(C)(C)OC(=O)Nc1ncnc2c1C(c1ccccc1)c1c(ccc3ccccc13)O2 (stereo not drawn) | -2%
O=S(=O)(c1ccc(Cl)cc1)c1nc(-c2ccccc2Br)oc1NCc1ccccc1 | -17%
Nc1nc(COC(=O)c2ccc([N+](=O)[O-])cc2)nc(Nc2ccccc2)n1 | 7%
CC(CNC(=O)c1cc2cc(S(=O)(=O)N3CCCCC3)ccc2n1C)c1ccccc1 (stereo not drawn) | -13%
Cc1ccc(CNC(=O)c2cccn2-c2nnc(N3CCCC3)s2)cc1 | -12%
Nc1nnc(-c2cccc3ccccc23)o1 | 4%
CN(C)S(=O)(=O)N1CCc2c(nc3cc(-c4ccccc4)[nH]n3c2=O)C1 | i
CC(C)(C)c1ccc(S(=O)(=O)Nc2ccc(-n3ccnc3)cc2)cc1 | 281%[activator]
Cc1ccccc1Cn1c(=O)n(CCCCCC(=O)NCc2ccc3c(c2)OCO3)c(=O)c2sccc21 | -11%
Cc1ccc(C(C)C)c(OCC(=O)Nc2ccc3c(c2)nc(CCNC(=O)c2ccco2)n3C)c1 | -22%
N[C@@]1(C(=O)O)CC[C@H]2[C@H](C(=O)O)[C@H]21 | 9%
COc1ccccc1CC(=O)N1CCN(C2CCN(C)C2=O)CC1 (stereo not drawn) | 2%
CC1CCN(c2oc(-c3cccs3)nc2S(=O)(=O)c2ccc(Cl)cc2)CC1 | -32%
Fc1ccc(NC(=S)Nc2nnc(-c3ccncc3)s2)cc1C(F)(F)F | i
CCCCNC(=O)Cn1nc(N2CCN(c3ccccc3OC)CC2)ccc1=O | -9%
CC(C)Cc1ccc(S(=O)(=O)N2CCN(Cc3noc(CCC(=O)N4CCCCC4)n3)CC2)cc1 | ?

Remaining list, next part
SMILES | nsP2pro inh
O=C1c2ccccc2C(=O)N1c1ccccc1O | -3%
Cc1ncc(NC(=O)c2ccc(CN3CCN(C)CC3)c(C(F)(F)F)c2)cc1Nc1nccc(-c2cccnc2)n1 | 357%[activator]
Cc1cccc(O[C@H]2COCCN(c3nc4ccccc4o3)C2)n1 | ?
C=C[C@@H]1C[C@]1(NC(=O)[C@@H]1C[C@@H](Oc2ncc(OC)c3ccc(Cl)cc23)CN1C(=O)[C@@H](NC(=O)OC(C)(C)C)C(C)(C)C)C(=O)NS(=O)(=O)C1CC1 | -14%&-12%&-14%
O=C(Nc1nc2ccc(F)cc2s1)c1nc(SCc2ccccc2F)ncc1Cl | -10%
COc1ccccc1C1C(C(=O)Nc2ccccc2)=C(C)Nc2nc(-c3ccccc3)nn21 (stereo not drawn) | -8%
COc1cccc(-c2ccc(NC(=O)C3CCCN3C(=O)CNC(C)=O)cc2)c1 (stereo not drawn) | -4%
Cc1ccc(CN2CCC3(CC2)CN(c2ncccn2)CC3CO)cc1C (stereo not drawn) | -7%
Cc1cccn2c(=O)c3cc(C#N)c(=O)n(-c4nnc(SCc5ccccc5F)s4)c3nc12 | -16%
O=C(Cn1ccn(-c2ccc(F)c(F)c2)c(=O)c1=O)NCc1ccccc1 | -9%
Cc1cccc(C)c1NC(=O)Cn1c(=O)n(Cc2ccccc2Cl)c(=O)c2cccnc21 | -8%
CC(C)N(Cc1ccccc1)S(=O)(=O)c1ccc(N2CCCCS2(=O)=O)cc1 | -15%
Cc1cccc(OCC(=O)N2CCC[C@H]2c2nc(-c3ccc(F)cc3)n[nH]2)c1 | -2%
CC(C)(OC1OC(CO)C(O)C(O)C1O)C1CCC(O)(CO)C2CC(O)C(C)(O)C2C1 (stereo not drawn) | ?
COc1cc(OC)c(C(CC(=O)N2CC(C)CC(C)C2)c2ccc3c(c2)OCO3)c(OCC#N)c1 (stereo not drawn) | i
CC(=O)Nc1cccc(-c2ncc3c(n2)OCCN(CC2CC2)C3=O)c1 | 1%[39.2 µM]
CN1c2ccccc2-c2nc(SCC(=O)Nc3ccccc3)ncc2S1(=O)=O | -6%
C=C1C(=O)OC2CC(C)=C(C(C)CCCOC(C)=O)C(OC(=O)CC(C)CC)C12 (stereo not drawn) | ?
CCN(CC)c1nn2c(=O)c(C(=O)NCCc3ccccc3)cnc2s1 | -16%
O=C(NCCN1CCN(c2cccc(Cl)c2)CC1)C1COc2ccccc2C1 (stereo not drawn) | -9%
C/C1=C\CC[C@H](C)CCO[C@@H]2O[C@H](CO[C@@H]3OC[C@](O)(COC1=O)[C@H]3O)[C@@H](O)[C@H](O)[C@H]2O | 17%[10 µM]
O=C(CSc1nnc(-c2ccc(F)cc2)o1)N1CCCc2ccccc21 | -21%
COc1ccc2nc(N3CCN(C(=O)CS(=O)(=O)c4ccc(C)cc4)CC3)sc2c1 | -14%
Cc1ccc(N(CC(=O)NCCc2ccccc2C)S(=O)(=O)N(C)C)cc1 | -16%
CCOc1ccc(N(C)C(=O)CS(=O)(=O)c2cccc3nsnc23)cc1 | -15%
CCOC(=O)C1CCN(C(=O)c2ccc3oc(-c4cccnc4)nc3c2)CC1 | 4%
Cc1cc(CN2CCC3(CC2)CCN(Cc2cscn2)CC3CO)on1 (stereo not drawn) | 5%
O=S(=O)(c1ccc2c(c1)CCN2)N1CCCCCC1 | -11%
CN(C)c1ccc(CCc2nc(C3CCOC3)no2)cc1 (stereo not drawn) | -14%
O=C(NC[C@H]1O[C@@H](CC(=O)N2CCc3ccccc32)[C@H](O)[C@@H]1O)C1CC1 | -8%[39.2 µM]
